From PubChem BioAssay
Polio RdRp inh: poliovirus RdRp elongation inhibitors, primary screen, biochemical, fluorescence polarization, total intensity. % elongation, % (compound at 16.7 µg/mL). poliovirus polymerase elongation; hits give low values. Genome polyprotein (Poliovirus type 1 (strain Mahoney)), P03300. actives 0.66% (n = 150,000). AID 588519, 2011; in the data active means % elongation below about 90%; further: some results filed as inactive read as strong as hits
Target sequence (P03300 1749-2209 limits assumed): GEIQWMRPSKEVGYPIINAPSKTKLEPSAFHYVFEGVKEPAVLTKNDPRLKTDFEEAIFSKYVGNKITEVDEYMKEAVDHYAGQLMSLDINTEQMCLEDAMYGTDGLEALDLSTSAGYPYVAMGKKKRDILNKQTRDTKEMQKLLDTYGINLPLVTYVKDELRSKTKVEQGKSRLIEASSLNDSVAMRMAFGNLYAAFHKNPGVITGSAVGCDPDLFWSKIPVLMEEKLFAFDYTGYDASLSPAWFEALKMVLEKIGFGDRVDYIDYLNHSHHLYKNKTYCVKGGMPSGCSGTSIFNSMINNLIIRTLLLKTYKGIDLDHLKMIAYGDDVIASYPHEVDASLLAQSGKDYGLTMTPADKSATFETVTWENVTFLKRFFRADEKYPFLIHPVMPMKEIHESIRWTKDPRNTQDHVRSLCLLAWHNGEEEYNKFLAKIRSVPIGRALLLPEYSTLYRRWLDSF
Polio RdRp inh intensity: second read-out of Polio RdRp inh, no call of its own (marks repeat the call); % elongation; measured here: total intensity read-out; formula for this scale not given here;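 total fluorescence in place of polarization; lower means less elongation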
The depositor's hits bear a star. An excerpt; rates above refer to the full screens.

Structure	Polio RdRp inh intensity	Polio RdRp inh
CCOC(=O)c1c(C)[nH]c(C)c1S(=O)(=O)N1CCC(C(=O)N2CCN(c3cccc(C)c3)C(C)C2)CC1 (centres undefined)	97.0	105.0
O=C(CSc1c2c(nc3cc(Cl)ccc13)CCCC2)N1CCN(c2ccccc2F)CC1	108.0	100.0
COc1ccc(Cl)cc1NC(=O)C1CCN(S(=O)(=O)c2ccc3c(c2)CC(C)N3C(C)=O)CC1 (centres undefined)	114.0	111.0
Cc1ccc(N2CCN(C(=O)c3c(C)oc4ncn(CC(C)C)c(=O)c34)CC2)c(C)c1	113.0	114.0
CCOc1cc2c(cc1OCC)C(CC(=O)OC)N(C(=O)Nc1cc(C)cc(C)c1)CC2 (centres undefined)	106.0	107.0
COc1ccc(OCC(=O)N2CCN(CCc3ccncc3)CC2)cc1	109.0	109.0
COc1ccc(C(=O)Nc2nnc(S(=O)(=O)N3CCN(c4ccc(C)cc4)CC3)s2)cc1	105.0	111.0
CCN(CC)S(=O)(=O)c1ccc2c(c1)N(CC(=O)NCC(C)c1ccccc1)C(=O)CO2 (centres undefined)	107.0	107.0
CCCCOc1ccc(C2c3c(oc4ccc(C)cc4c3=O)C(=O)N2CCCN(C)C)cc1OCC (centres undefined)	104.0	103.0
COc1nc(Oc2ccc(=O)n(-c3ccccc3)n2)nc(N(C)C)n1	111.0	104.0
COc1ccc(CNC(=O)C(C(C)C)N2Cc3ccccc3C2=O)cc1 (centres undefined)	109.0	108.0
CCOC(=O)c1c(NC(=O)CS(=O)(=O)c2ccc(C)cc2)sc2c1CCCCC2	103.0	100.0
COC(=O)c1ccc(NC(=O)CN2CCN(S(=O)(=O)c3ccc(Br)cc3)CC2)cc1	114.0	114.0
COC(=O)c1ccccc1NC(=O)N1CCC(N2CCN(Cc3ccc(F)cc3)C(=O)C2=O)CC1	113.0	107.0
CC(=O)c1ccc(NC(=O)c2cn(C)c(=O)c3ccccc23)cc1	105.0	99.0
Cc1ccc(CN2CCCn3nc(C(=O)NCc4cc(C)ccc4C)cc3C2=O)cc1	100.0	99.0
CCOC(=O)c1c(C)[nH]c(CCC(=O)NCc2ccc(OC)cc2OC)c1C	113.0	115.0
CCOC(=O)C1=C(C)NC(=O)NC1c1cn(-c2ccccc2)nc1-c1ccc(OCC)cc1 (centres undefined)	111.0	106.0
Cc1ccc(CCNc2ncnc3onc(-c4ccc(Cl)cc4)c23)cc1	112.0	111.0
CCn1cc(C(=O)N2CCN(c3cc(C)ccc3C)CC2)c(=O)c2cc(S(=O)(=O)N3CCOCC3)ccc21	99.0	101.0
COc1ccc(Nc2c(-c3ccsc3)nc3nc(C)cc(C)n23)cc1	110.0	107.0
Cc1cccc(NC(=O)Cn2cc(S(=O)(=O)c3ccc(F)cc3)c(=O)c3cc4c(cc32)OCO4)c1	104.0	106.0
COc1ccccc1CCNC(=O)Cc1c(C)c2c(cc(C)c3c(C)coc32)oc1=O	94.0	105.0
Cc1ccc(NC(=O)C2CCC(CNS(=O)(=O)c3cccc4nsnc34)CC2)c(C)c1 (centres undefined)	111.0	111.0
Cc1ccccc1NC(=O)CC(NCc1cccnc1)C(=O)O (centres undefined)	103.0	103.0
Cc1ccc(CNC(=O)c2cc3c(s2)-c2ccc(Cl)cc2SC3)cc1	109.0	106.0
O=C(NCCn1cc(SCc2ccc(Cl)cc2)c2ccccc21)c1cccs1	111.0	106.0
COC(=O)c1ccccc1NC(=O)N1CCC(n2c(C)nc3cccnc32)CC1	97.0	102.0
CC(C)(C)c1ccc(-c2nc(S(=O)(=O)c3ccccc3)c(N3CCOCC3)o2)cc1	109.0	106.0
COc1cc(NC(=O)CSc2nc(-c3ccco3)cc(C(F)(F)F)n2)cc(OC)c1OC	108.0	106.0
COc1ccccc1C(=O)N1CCC(c2c[nH]c3ccccc23)(c2c[nH]c3ccccc23)CC1	103.0	112.0
COc1cccc(/C=C/c2nc(C#N)c(N(C)Cc3ccccc3)o2)c1	104.0	103.0
Cc1ccc(/C=C/C(=O)Nc2ccc3nc(N4CCC(C)CC4)cc(C)c3c2)cc1	105.0	109.0
COc1cccc(N2CC(NC(=O)Cc3cccs3)CC2=O)c1 (centres undefined)	109.0	105.0
COc1ccccc1NC(=O)C1=C(C)Nc2nnnn2C1c1ccc(C(F)(F)F)cc1 (centres undefined)	103.0	104.0
O=C(O)c1cc(-c2ccccc2)nn1Cc1ccccc1	106.0	106.0
CCC(=O)Nc1cc(-c2cn3cccnc3n2)ccc1OC	113.0	112.0
COc1ccccc1N1CCN(C(CNC(=O)C(=O)NCCCN(C)C)c2cccnc2)CC1 (centres undefined)	115.0	115.0
Cc1ccc2c(=O)cc(C(=O)Nc3sc4c(c3C(=O)NCC3CCCO3)CCCC4)oc2c1C (centres undefined)	111.0	106.0
Cc1oc2ccc(O)c(CN(C)Cc3ccccc3)c2c1C(=O)Nc1cccc(C(F)(F)F)c1	104.0	112.0
COc1ccc(CNC(=O)c2ccc(NC(=O)N3CCSc4ncccc43)cc2)c(OC)c1	107.0	102.0
COc1ccc(-c2ccc(NS(=O)(=O)c3cc(C)c(C)cc3C)cc2)nn1	105.0	106.0
Cc1cccc(-c2cc(NC(=O)C(C)(C)C)n(-c3ccccc3)n2)c1	115.0	109.0
CCc1ccc(NC(=O)CSc2nnc(-c3cc4occc4n3C)n2-c2ccccc2C)cc1	108.0	114.0
O=C(Nc1cccc(F)c1)[C@@H](c1ccccc1)N1Cc2ccccc2C1=O	108.0	106.0
Cc1ccc(C(=O)NCC(=O)OCc2cc(=O)n3c(C)csc3n2)cc1	103.0	105.0
COc1ccc(OC)c(NC(=O)C(CCSC)NS(=O)(=O)c2cccs2)c1 (centres undefined)	113.0	113.0
CCn1c(C(=O)NCc2ccc(F)cc2)cc2oc3ccccc3c21	111.0	113.0
Cc1cccc(C(=O)N2c3nc(-c4ccco4)nn3C3(CCCCC3)[C@@H]3CCCC[C@@H]32)c1	106.0	102.0
Cc1cccc(OCCCn2c(CCNC(=O)C3CCCCC3)nc3ccccc32)c1	110.0	107.0
O=C(c1ccc2c(c1)N(Cc1ccc(F)cc1)C(=O)c1ccccc1S2=O)N1CCOCC1 (centres undefined)	111.0	108.0
CCN(Cc1ccccc1)C(=O)CCS(=O)(=O)c1ccc2c(c1)oc(=O)n2C	97.0	102.0
O=C(NCc1ccccc1)c1cccc(NC(=O)N2CCSc3ncccc32)c1	106.0	109.0
Cc1n[nH]c(C)c1S(=O)(=O)N1CCCC(C(=O)Nc2ccc(Cl)cc2)C1 (centres undefined)	104.0	105.0
CCN(CC)c1cc2c(cc1F)c(=O)c(S(=O)(=O)c1ccc(OC)cc1)cn2CC	91.0	102.0
CCOc1ccc(NC(=O)c2cnc3sc(N4CCOCC4)nn3c2=O)cc1	103.0	105.0
CCCCCN1C(C(=O)c2ccccc2)=C(OC(=O)CC)c2ccccc2S1(=O)=O	111.0	106.0
Fc1ccccc1C(NCCc1ccc(Cl)cc1)c1nnc(-c2ccccc2)o1 (centres undefined)	105.0	104.0
CCC1CCCCN1S(=O)(=O)c1ccc(NC(=O)c2cc(=O)c3ccccc3o2)cc1 (centres undefined)	114.0	108.0
Cc1cc(=O)n(Cc2ccccc2)c2c1c(C)nn2C	106.0	104.0

Filtered by structure, those above containing an NH in an aromatic ring
Structure	Polio RdRp inh intensity	Polio RdRp inh
CCOC(=O)c1c(C)[nH]c(C)c1S(=O)(=O)N1CCC(C(=O)N2CCN(c3cccc(C)c3)C(C)C2)CC1 (centres undefined)	97.0	105.0
CCOC(=O)c1c(C)[nH]c(CCC(=O)NCc2ccc(OC)cc2OC)c1C	113.0	115.0
COc1ccccc1C(=O)N1CCC(c2c[nH]c3ccccc23)(c2c[nH]c3ccccc23)CC1	103.0	112.0
Cc1n[nH]c(C)c1S(=O)(=O)N1CCCC(C(=O)Nc2ccc(Cl)cc2)C1 (centres undefined)	104.0	105.0

The listing continues.
Structure	Polio RdRp inh intensity	Polio RdRp inh
COC(=O)CC1Oc2ccccc2-n2cc(-c3ccccc3)nc21 (centres undefined)	111.0	109.0
COc1ccc(C2CC(=O)Nc3c2c(=O)nc2c(C)cccn32)cc1 (centres undefined)	107.0	104.0
O=C(NCCc1ccc(Cl)cc1)C(=O)NCC(c1ccco1)S(=O)(=O)c1cccs1 (centres undefined)	107.0	101.0
O=C(c1ccccc1)N1c2ncnn2C2(CCCCC2)[C@@H]2CCCC[C@@H]21	111.0	105.0
CCc1ccccc1Nc1nc2ccccc2n2cnnc12	98.0	105.0
Cc1nc2ccccc2c(=O)n1-c1ccc(NC(=O)c2ccc([N+](=O)[O-])cc2)cc1	112.0	106.0
CCOc1ccccc1NC(=O)C1CCN(S(=O)(=O)c2c(C)noc2/C=C/c2ccc(C)cc2)CC1	110.0	108.0
Cc1ccc(Nc2cc(C)c(C#N)c3nc4ccccc4n23)c(C)c1	112.0	107.0
O=C(Cn1c(=O)nc(-c2ccccc2)c2ccccc21)NCc1ccccc1Cl	103.0	100.0
CCOC(=O)c1ccc(NC(=O)C(=O)NCc2ccco2)cc1	108.0	106.0
COc1ccc(S(=O)(=O)N(CCc2ccccc2)CC(=O)Nc2cccc(OC)c2)cc1	109.0	111.0
O=S(=O)(c1ccc(F)cc1)N(CC(O)Cn1c2ccccc2c2ccccc21)c1ccccc1 (centres undefined)	110.0	105.0
Cc1ccc(OCCCn2c(CCNC(=O)C3CCCCC3)nc3ccccc32)c(C)c1	103.0	100.0
Cc1ccc(C)c(Nc2nnc(-n3nc(C)cc3C)c3ccccc23)c1	101.0	102.0
COc1cccc(C(c2sc3nc(-c4ccco4)nn3c2O)N2CCN(c3ccccc3F)CC2)c1 (centres undefined)	113.0	113.0
CC(=O)N1CCc2c(sc3c2c(=O)n(-c2ccccc2)c(=O)n3CC(=O)c2ccc(F)cc2)C1	107.0	103.0
Cc1ccccc1Cn1cc(NC(=O)c2cc(-c3ccc(Cl)cc3)on2)cn1	106.0	105.0
Cc1ccc2c(=O)cc(C(=O)Nc3ccc(S(=O)(=O)N(C)Cc4ccccc4)cc3)oc2c1	98.0	104.0
Cc1ccc(C)c(N2CCN(S(=O)(=O)c3ccc(C(=O)N(C)C)s3)CC2)c1	114.0	107.0
COc1cccc(NC(=O)C2CCC(CNS(=O)(=O)c3ccc4c(c3)CC(C)N4C(C)=O)CC2)c1 (centres undefined)	121.0	114.0
CC(C)OC(=O)/C(C#N)=C/c1ccc(-c2ccc(Cl)c(Cl)c2)o1	111.0	107.0
Cc1ccc(C(=O)NCC(c2cccs2)S(=O)(=O)c2ccccc2)cc1C (centres undefined)	110.0	104.0
Cc1cccc(NC(=O)Nc2ccc(F)cc2)n1	105.0	106.0
O=S(=O)(NCCc1nnc2ccc(SCc3ccc(C(F)(F)F)cc3)nn12)c1ccccc1	113.0	110.0
O=C(Nc1cccc(C(=O)N2CCN(c3ccc(Cl)cc3)CC2)c1)c1nsc2ccccc12	99.0	104.0
Cc1ccc(C)c(NC(=O)Cn2nnc(C(=O)NCc3ccco3)c2N)c1	106.0	98.0
Cc1ccc(NC(=O)c2oc3ccccc3c2NC(=O)C23CC4CC(CC(C4)C2)C3)cc1	104.0	103.0
CCCCC(CC)CNC(=O)Cc1ccc(-n2c(=O)[nH]c3ccccc3c2=O)cc1 (centres undefined)	111.0	106.0
Cc1cc2c(cc1S(=O)(=O)N(C)CC(=O)Nc1ccc(C#N)cc1)OCC(=O)N2	114.0	111.0
COc1ccc(NC(=O)C2CCCN(S(=O)(=O)c3ccc4c(c3)oc(=O)n4C)C2)c(OC)c1 (centres undefined)	102.0	105.0
CCc1cccc(C)c1NC(=O)C1CCN(c2nn3c(=O)cc(C)nc3s2)CC1	108.0	113.0
Cc1ccc(Cl)cc1N1CCN(C(=O)c2nn(C)c3c2CS(=O)(=O)c2ccccc2-3)CC1	102.0	106.0
CCCn1c(=O)c2sccc2n2c(CCCC(=O)NC3CCCCC3)nnc12	113.0	117.0
Cc1ccc2nc(-c3ccc(O)cc3)c(Nc3ccc4c(c3)OCCO4)n2c1	114.0	113.0
COc1ccc(-c2noc(CC(=O)Nc3cc(OC)ccc3OC)n2)cc1	109.0	106.0
CC1(C)CC(=O)c2cc(-c3nc(-c4ccc(Br)cc4)cs3)c(=O)n(-c3ccccc3)c2C1	100.0	100.0
CCOc1ccc(-n2c(SCC(=O)Nc3ccc(CC)cc3)nc3c(oc4ccccc43)c2=O)cc1	104.0	104.0
O=C(NCc1ccc(Cl)cc1)C1CCN(S(=O)(=O)Cc2ccccc2)CC1	112.0	108.0
O=C(NCc1nc2cccnc2n1Cc1ccc(F)cc1)c1ccccc1C(F)(F)F	108.0	101.0
CCc1cccc(C)c1NS(=O)(=O)c1c(C(=O)N2CCCCCC2)c(C)n(C)c1C	113.0	107.0
COCCCNC(=O)c1ccc2c(c1)N(Cc1ccccc1F)C(=O)c1ccccc1S2=O (centres undefined)	105.0	102.0
Cc1ccc(CCNC(=O)Cn2ncc3c(=O)oc4ccccc4c32)cc1	102.0	104.0
